Screening results as filed in PubChem.
NPYLR7 ag: activates Aedes aegypti NPYLR7 receptor; HEK293T NPYLR7/Galpha15, GCaMP6s calcium fluorescence; activation, % at 10 µM; hit rate 0.15% among 270,000; AID 1259423; in the data active means activation above about 40%;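 further: 0% = vehicle and 100% = reference agonist at the receptor; some compounds past the cut are filed as inactive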
NPYLR7 ag max-min: further read-out of NPYLR7 ag, marked with its call; activation, %; measured here: Max-Min RFU normalised activation; some inactives read as strong as hits;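 span of the calcium signal over five minutes; 0% = vehicle and 100% = native peptide agonist; compound fluorescence can raise it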
The depositor's hits bear a star; & = joins results of further samples.

SMILES	NPYLR7 ag	NPYLR7 ag max-min
O=C(Nc1ccc(-n2nc(OCc3ccc(F)cc3)nc2-c2ccco2)cc1)c1cccc([N+](=O)[O-])c1	12.0	23.7
CCCCC(=O)Nc1c(-c2cc(C)cc(C)c2)nc2ccccn12	-9.9	-1.2
COc1cc(Cl)c(CN(C)CC2CCN(Cc3ccc(C)o3)CC2)cc1OC	21.5	15.9
CCCCCCCCC(=O)N1CCN(c2nc(Cc3ccccc3)nc3c2cnn3-c2cccc(Cl)c2)CC1	34.1	36.3
COc1ccc(S(=O)(=O)NCC2CCCO2)cc1N1CCN(C(=O)c2cc(F)ccc2Cl)CC1 (centres undefined)	13.0	5.7
C=CCN(CC(=O)N(Cc1ccco1)Cc1cccn1C)C(=O)Nc1c(C(C)C)cccc1C(C)C	-5.4	-1.8
COc1cc2nc(NC(=O)c3ccnc(Cl)c3)[nH]c2cc1OC	18.4	9.2
Cc1cc(COc2ccccc2)oc1C(=O)N(C)Cc1snnc1C	2.8	-8.5
CC1(C)CC2CC(C)(CN2CC(O)COc2ccc(F)cc2Cl)C1 (centres undefined)	1.5	11.1
Cc1ccccc1-c1ccc(=O)n(Cc2ccccc2)n1	12.7	7.4

Reprinted from above, two compounds:
SMILES	NPYLR7 ag	NPYLR7 ag max-min
CCCCCCCCC(=O)N1CCN(c2nc(Cc3ccccc3)nc3c2cnn3-c2cccc(Cl)c2)CC1	34.1	36.3
COc1ccc(S(=O)(=O)NCC2CCCO2)cc1N1CCN(C(=O)c2cc(F)ccc2Cl)CC1 (centres undefined)	13.0	5.7

New compounds follow.
SMILES	NPYLR7 ag	NPYLR7 ag max-min
COc1cccc(CNC(=O)CCC2CCCN(C(=O)c3csc(C(C)C)n3)C2)c1 (centres undefined)	-5.0	-1.0
CC(C)c1cc(=O)[nH]c(-n2nc(-c3cccs3)cc2NC(=O)c2cccc(F)c2)n1	3.0	-0.4
CC(=O)NCCNC(=O)c1nnc2n1CCN(C(=O)c1cccn1C)C2	7.4	2.9
CNc1nc(Nc2ccc(C(C)=O)cc2)nc(OC(C(F)(F)F)C(F)(F)F)n1	-0.9	-8.1
COc1ccc(C(=O)N2CCN(c3cccc(Cl)c3)CC2)cc1[N+](=O)[O-]	-1.1	-4.4
CSc1ccccc1NC(=O)C1(C)CCN1C(=O)Cc1ccc(Cl)cc1Cl (centres undefined)	12.2	10.1
Cc1ccccc1Oc1cc(N2CCN(C(=O)c3ccc(F)cc3)C(C)C2)ncn1 (centres undefined)	-11.5	-7.3
CCN(Cc1ccc(OC)cc1)C(=O)c1ccc(-n2cnnc2)cc1	4.8	1.4
COc1ccc(NC(=O)CCc2ccccc2C#N)cc1	2.5	3.6
CC(C)CCN1Cc2ccc(NC(=O)CC(C)C)cc2C1	-0.8	-3.3

18 entries from above, in markdown.
| SMILES | NPYLR7 ag | NPYLR7 ag max-min |
| --- | --- | --- |
| COc1cc(Cl)c(CN(C)CC2CCN(Cc3ccc(C)o3)CC2)cc1OC | 21.5 | 15.9 |
| CCCCCCCCC(=O)N1CCN(c2nc(Cc3ccccc3)nc3c2cnn3-c2cccc(Cl)c2)CC1 | 34.1 | 36.3 |
| COc1ccc(S(=O)(=O)NCC2CCCO2)cc1N1CCN(C(=O)c2cc(F)ccc2Cl)CC1 (centres undefined) | 13.0 | 5.7 |
| C=CCN(CC(=O)N(Cc1ccco1)Cc1cccn1C)C(=O)Nc1c(C(C)C)cccc1C(C)C | -5.4 | -1.8 |
| COc1cc2nc(NC(=O)c3ccnc(Cl)c3)[nH]c2cc1OC | 18.4 | 9.2 |
| Cc1cc(COc2ccccc2)oc1C(=O)N(C)Cc1snnc1C | 2.8 | -8.5 |
| CC1(C)CC2CC(C)(CN2CC(O)COc2ccc(F)cc2Cl)C1 (centres undefined) | 1.5 | 11.1 |
| Cc1ccccc1-c1ccc(=O)n(Cc2ccccc2)n1 | 12.7 | 7.4 |
| COc1cccc(CNC(=O)CCC2CCCN(C(=O)c3csc(C(C)C)n3)C2)c1 (centres undefined) | -5.0 | -1.0 |
| CC(C)c1cc(=O)[nH]c(-n2nc(-c3cccs3)cc2NC(=O)c2cccc(F)c2)n1 | 3.0 | -0.4 |
| CC(=O)NCCNC(=O)c1nnc2n1CCN(C(=O)c1cccn1C)C2 | 7.4 | 2.9 |
| CNc1nc(Nc2ccc(C(C)=O)cc2)nc(OC(C(F)(F)F)C(F)(F)F)n1 | -0.9 | -8.1 |
| COc1ccc(C(=O)N2CCN(c3cccc(Cl)c3)CC2)cc1[N+](=O)[O-] | -1.1 | -4.4 |
| CSc1ccccc1NC(=O)C1(C)CCN1C(=O)Cc1ccc(Cl)cc1Cl (centres undefined) | 12.2 | 10.1 |
| Cc1ccccc1Oc1cc(N2CCN(C(=O)c3ccc(F)cc3)C(C)C2)ncn1 (centres undefined) | -11.5 | -7.3 |
| CCN(Cc1ccc(OC)cc1)C(=O)c1ccc(-n2cnnc2)cc1 | 4.8 | 1.4 |
| COc1ccc(NC(=O)CCc2ccccc2C#N)cc1 | 2.5 | 3.6 |
| CC(C)CCN1Cc2ccc(NC(=O)CC(C)C)cc2C1 | -0.8 | -3.3 |

Remaining list, next part:
SMILES	NPYLR7 ag	NPYLR7 ag max-min
CCOc1ccc(C(=O)CCC(=O)NCC2(N3CCOCC3)CCCCC2)cc1	8.0	11.7
CCOc1ccc2ccccc2c1C(=O)Oc1coc(CSc2nccc(C)n2)cc1=O	-11.3	-4.4
Cc1c(Cl)ccc2sc(N(CCCN3CCOCC3)C(=O)c3ccc(C#N)cc3)nc12	-4.2	-7.1
COCCCn1cnnc1CNC(=O)C1CCC(=O)N(CC2CCCCC2)C1 (centres undefined)	1.1	-2.3
C(=N/[n+]1ccccc1)/c1ccccc1	-2.8	28.9
Cc1ccc(-c2cc(C3CCN(C(=O)c4ccn[nH]4)C3)ccn2)c2cccnc12 (centres undefined)	12.1	10.1
COCCN(CC(=O)N(Cc1ccc2c(c1)OCO2)Cc1cccs1)C(=O)c1ccc(Cl)c(Cl)c1	-5.5	0.7
COc1ccnc(NCc2ccc(N3CCOCC3)cc2)n1	-2.4	-3.1
CC(NC(=O)OCc1ccccc1)C(=O)N1CCOC(Cc2ccccc2)C1 (centres undefined)	-3.9	-7.9
Cc1ccc2nc(-c3ccc(NC(=O)c4ccc(Br)cc4)cc3)oc2c1	-4.0	-8.4
Oc1ccc2ccccc2c1C=NNc1nnc(-c2ncc[nH]2)c2ccccc12	0.8	-5.4
O=C(Cn1nc2c(c1NC(=O)c1cccs1)CSC2)NCC1CCCO1 (centres undefined)	-4.8	-2.4
Cc1ccc(S(=O)(=O)Oc2c(Br)cc(Br)c3cccnc23)cc1	-2.2	-4.6
Cc1cccnc1CN(C)c1ccc(C(=O)NCc2noc(C(C)C)n2)cn1	0.1	-2.6
Cc1ccccc1NC(=O)CSc1ccc(-c2ccc(-n3cccn3)cc2)nn1	-9.7	-11.4
Cc1nn(C(C)C)c(C)c1S(=O)(=O)N(CC#N)Cc1ccccc1	11.1	-0.8
O=C(NCc1ccc2c(c1)OCO2)c1cc2n(n1)CCN(Cc1cccc(Cl)c1)C2=O	23.7	24.5
Cc1c(C#N)c(NC(=O)CCl)n(-c2ccc(F)cc2)c1C	8.9	8.0
CC(C)c1ccc(Cc2cnc(N3C(=N)SCC3=O)s2)cc1	2.7	0.4
CSc1nccc(-c2ccc(S(C)(=O)=O)cc2)n1	3.9	3.2
CC1CCN(C(=O)CSc2ccc(NC(=O)c3ccccc3F)nn2)CC1	-6.6	-12.5
CN(C)CCN(C(=O)c1ccco1)c1nc2cc3c(cc2s1)OCO3	-2.9	-0.9
O=C(Nc1ccnn1C1CCN(c2ncccn2)CC1)c1ccc2c(c1)OCO2	-2.5	-5.4
Nc1nonc1-c1noc(COc2ccc(I)cc2)n1	2.0	-0.9
OCC1(CCOc2ccccc2)CCN(Cc2cc3c(cc2Cl)OCO3)CC1	-2.9	9.9
Cc1nnc(CN2CCCCC2CCN2CCOCC2)s1 (centres undefined)	-3.5	-5.9
CC(C)CN(CC(C)C)C(=O)c1ccc(F)c(F)c1	9.5	4.3
O=C(CN1C(=O)CNC1=O)NC(c1ccc(F)cc1)c1ccccc1Cl (centres undefined)	6.9	6.1
CCCCN(Cc1cccn1Cc1ccc(Br)cc1)C(=O)CN(CCOC)S(=O)(=O)c1cc(Cl)ccc1Cl	16.2	30.6
CC1(C(=O)NS(=O)(=O)c2ccc3ccccc3c2)CCN1C(=O)Cc1ccc(Cl)cc1Cl (centres undefined)	3.3	3.7

Some of the entries so far, with values under each structure.
Values in the order: NPYLR7 ag, NPYLR7 ag max-min
> Cc1nnc(CN2CCCCC2CCN2CCOCC2)s1 (centres undefined)
 : -3.5, -5.9
> CC(C)CN(CC(C)C)C(=O)c1ccc(F)c(F)c1
 : 9.5, 4.3

Next records:
SMILES	NPYLR7 ag	NPYLR7 ag max-min
CC(=O)OC1CS(=O)(=O)CC1OC(C)=O (centres undefined)	19.8	13.4
CCOc1cccc(-n2cc(-c3ccccc3)nc2NC(=O)CN(C(=O)NC(C)(C)C)C2CC2)c1	7.2	1.4
CCc1nccn1CC(C)C(=O)O (centres undefined)	-2.3	-3.8
Cc1[nH]cnc1-c1nccn1-c1ccc2c(c1)CCC2	2.7	1.7
COc1cc(-c2cnn3c(C)c(C(=O)N4CCCCC4)cnc23)cc(OC)c1OC	12.3	-0.3
Cc1c(NCc2cccnc2)cccc1C(=O)NCc1cc(C(C)(C)C)n[nH]1	-2.9	-1.7
Cc1ccccc1-n1c(SCCCC(=O)N2CCN(C(=O)c3cccc(Br)c3)C(C)C2)nnc1-c1ccccc1 (centres undefined)	5.6	14.4
CCOC(=O)c1ccc(N=Cc2c(O)[nH]c(=O)[nH]c2=O)cc1	7.6	1.1
Cc1cc(C)cc(C(=O)NCCn2nc(-c3cccs3)ccc2=O)c1	6.1	4.4
Clc1ccc2oc(C3=NNC(=NC4CC4)SC3)cc2c1	11.8&5.6	6.4&4.7
O=C(NCc1ccco1)c1ccc(CSc2nnc(-c3ccccc3Cl)n2-c2ccc(F)cc2)cc1	-7.9	3.5
Cc1nn(CC(=O)O)c2c1C(c1c(C)nc3sccn13)CC(=O)N2 (centres undefined)	-2.5	-5.1
CCCNC(=O)C1CCC(Cn2c(=O)c3sccc3n(Cc3ccccc3C)c2=O)CC1 (centres undefined)	2.5	1.9
Cc1ccc2oc(=O)n(C3CCN(C(=O)C(Cl)(Cl)Cl)CC3)c2c1	4.3	0.2
COc1ccc(-n2nc(C)c(-c3ccccc3)c2NC(=O)CN(CC(C)C)C(=O)c2ccc(C)c([N+](=O)[O-])c2)cc1	-0.8	5.3
Cc1ccc(C(NCCc2ccccc2)P(=O)(O)O)s1 (centres undefined)	4.5	3.7
CCNC(=O)N(CCOC)CC(=O)N(CCc1ccc(OC)c(OC)c1)Cc1ccc(C)o1	-6.6	-13.0
CCc1ccc(C(=O)NCc2ccc(C#N)cc2)o1	2.4	2.5
CCC(C)n1c(C)c(C)n2c3c(=O)n(CCc4ccccc4)c(=O)n(C)c3nc12 (centres undefined)	8.4	4.0
Cc1oc(-c2ccc(-c3ccccc3)cc2)nc1CN1CCCC1c1n[nH]c(=O)[nH]1 (centres undefined)	3.4	-1.3
O=C1C=CC(=NS(=O)(=O)c2cc(Cl)c(Cl)cc2Cl)C=C1	3.0	0.5
O=C(NCc1ccc(F)cc1)C(=O)NCC1OCCN1C(=O)c1cccs1 (centres undefined)	-3.6	1.5
Cc1cccc(-c2noc(N3CCOCC3)c2CN(Cc2ccc(F)cc2)C(=O)Cc2ccccc2)c1	10.2	14.4
O=C(CCC1CCN(C(=O)[C@@H]2C[C@@H]3C=C[C@H]2C3)CC1)Nc1ccc2c(c1)OCCO2	3.4	3.4
COc1ccc2c(c1)CCc1cc(CCC(=O)NCc3cccs3)n(-c3ccc4ncsc4c3)c1-2	23.8	7.3
Cc1cc(O)c(C=O)c(O)c1C(=O)O	-12.5	-16.5
COc1ccc2c(c1)CC(CNC(=O)C(C)Cl)O2 (centres undefined)	10.1	12.2
Cc1ccc2c(c1)c(C(=O)N1CCC(O)(CN(C)C)C1)nn2C (centres undefined)	4.3	2.8
C=CCn1c(SCC#N)nc2sc(C)c(C)c2c1=O	0.7	25.8
CC(C)CC(=O)Nc1sc(SCC(N)=O)nc1-c1ccccc1	-8.3	-12.2
c1ccc(C2CC(N3CCOCC3)Oc3cc4c(cc32)OCO4)cc1 (centres undefined)	-5.1	-7.3
Cn1ccnc1C(NC(=O)CCl)c1ccc(F)cc1 (centres undefined)	7.5	0.7
Cc1nccn1CC1CCCN(Cc2cnc(N3CCCCC3)nc2)C1 (centres undefined)	6.7	2.9
COc1ccc(NC(=O)Cn2c3c(c(=O)n(C4CCCCC4)c2=O)CCC3)cc1OC	-1.9	2.1
NC(=O)N1CCCN(c2ncc(Br)c3ccccc23)CC1	-2.9	-2.9
CC(=O)c1c(C)cc(C)c(CS(=O)(=O)CC(O)c2ccccc2Cl)c1C (centres undefined)	-3.2	-6.2
COc1cc(C#N)ccc1OC(C)C(=O)NC(=O)Nc1ccc(C)cc1C (centres undefined)	11.1	5.0
O=C(CSc1nc2c(c(=O)n1-c1cccc(C(F)(F)F)c1)SCC2)Nc1ccccc1	-2.9	-8.4
Cc1ccc(-c2nsc(SCC(=O)Nc3cccc([N+](=O)[O-])c3)n2)cc1	-4.0	-5.9
CCOCCCn1c(SCC(=O)N2CCOCC2)nc2cc(S(=O)(=O)N3CCCC(C)C3)ccc21 (centres undefined)	17.7	13.8
Cc1nc2c(c(N(C)C)n1)CCN(C(=O)CCc1c[nH]c3ccccc13)C2	20.1	13.3
CC[C@H](O)[C@@H]1N(C(=O)C2(c3ccc(Cl)cc3)CCCC2)C2CCC1(O)CC2	12.5	20.4
Cc1ccc2nc(N3CCN(Cc4ccccc4)CC3)c(C=C3SC(=S)N(C)C3=O)c(=O)n2c1	2.2	1.2
c1ccc(C(c2ccccc2)c2n[nH]c3c2CN(CCc2cn[nH]c2)CC3)cc1	-5.6	-10.0
C=Cc1ccc(CN2C(=O)C(C)Oc3ccc(S(=O)(=O)CC)cc32)cc1 (centres undefined)	10.2	5.4

Some of the compounds tested; count on the stated rates, not on these rows.
